High-throughput results as filed in PubChem BioAssay.
AID923: qHTS Assay for Allosteric/Competitive Inhibitors of Caspase-1: Spectroscopic Profiling in AFC Spectral Region | compound fluorescence, AFC spectral region (405/520 nm); almost no hit is shown here | Potency, µM (doses to about 57.5 µM), without a hit: top-dose fluorescence increase, actives largely listed as activators | 75,000 compounds, 1.1% hits; active = well fitted activation curve with a large enough effect; inconclusive = small, poorly fitted or top-dose-only effect;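 also: potency is read from the fitted curve at half-maximal effect; 0% is about no effect; scaled to a free AFC standard on each plate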
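Titrations up to 57 uM read every 20 sec for 3 min (405/520 nm) with 50 nM caspase 1 and 5 uM Ac-WEHD-AFC, pH 7.5 HEPES buffer. Fluorescence-vs-time intercept gave baseline, scaled against on-plate AFC standard.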
A488 fluor: compound fluoresces in the A488 spectral region | compound autofluorescence, A488 spectral region, dye equivalency; hits give high values | max dye equivalency, M | 59,000 compounds, 0.1% hits | AID 591; active = above 10 nM dye equivalent; inconclusive = 1 to 10 nM; inactive = 1 nM or less; about half of its hits are not listed in these tables;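 also: highest value over a series up to 38 µM; compound alone in buffer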
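Compounds pin-transferred into 100 mM Tris buffer, pH 8.0, incubated 15 min at room temperature, then imaged with 480 nm excitation/540 nm emission filters. Fluorescence converted to Alexa 488 dye-equivalent concentration via an on-plate six-point A488 standard curve.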
A647 fluor: compound autofluorescence in A647 spectral region | Compound fluorescence, A647 channel (570/671 nm), Tris buffer | max dye-equivalent concentration, M | 59,000 tested, under 10 active; active means above 1 µM dye equivalent; inconclusive means 0.1 to 1 µM; inactive means 0.1 µM or less;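 also: values scaled relative to a standard on each plate; highest value over a series up to 38 µM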
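Compounds pinned into 100 mM Tris pH 8.0, 15 min at room temperature, then read with 570 nm excitation/671 nm emission filters. Fluorescence normalized to an on-plate six-point Alexa 647 standard curve, giving dye-equivalent concentration per compound concentration.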
TSHR agonist: activates the human thyroid stimulating hormone receptor | Potency, µM (highest dose often 57.1 µM), without a hit: at the top dose activation, actives largely listed as activators | P16473 | AID 926 | 73,000 compounds, 0.48% hits | HEK293-CNG-TSHR cells (CNG channel as cAMP sensor), membrane potential dye, cAMP; active = well fitted activation curve of enough size with the parental cells flat; inconclusive = any curve in the parental cells; inactive = parental cells flat and receptor cells flat or falling; also: potency is read from the fitted curve at half-maximal effect; % of control where 0% means no effect; weak receptor curves with flat parental cells got no call and are not listed
Target sequence (P16473 whole entry, looked up): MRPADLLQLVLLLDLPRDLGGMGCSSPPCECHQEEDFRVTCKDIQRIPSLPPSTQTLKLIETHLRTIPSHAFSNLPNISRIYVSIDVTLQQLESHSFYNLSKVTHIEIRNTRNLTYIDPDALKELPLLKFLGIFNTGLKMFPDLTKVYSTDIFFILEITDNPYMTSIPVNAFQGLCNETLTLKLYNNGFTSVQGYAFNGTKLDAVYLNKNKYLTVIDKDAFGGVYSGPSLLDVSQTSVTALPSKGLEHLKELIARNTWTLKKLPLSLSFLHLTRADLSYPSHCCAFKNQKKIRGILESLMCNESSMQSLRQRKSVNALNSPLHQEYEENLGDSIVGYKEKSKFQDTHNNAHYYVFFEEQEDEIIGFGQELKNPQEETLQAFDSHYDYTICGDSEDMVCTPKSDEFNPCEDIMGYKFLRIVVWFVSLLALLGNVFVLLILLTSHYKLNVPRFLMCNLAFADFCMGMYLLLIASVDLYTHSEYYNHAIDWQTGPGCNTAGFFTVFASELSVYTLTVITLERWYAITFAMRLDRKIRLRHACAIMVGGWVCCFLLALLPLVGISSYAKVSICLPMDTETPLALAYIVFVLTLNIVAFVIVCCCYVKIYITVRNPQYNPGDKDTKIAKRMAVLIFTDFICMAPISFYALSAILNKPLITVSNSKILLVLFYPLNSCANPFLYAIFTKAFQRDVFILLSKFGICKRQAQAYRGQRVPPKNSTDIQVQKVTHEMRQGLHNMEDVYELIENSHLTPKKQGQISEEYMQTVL
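HEK 293 cells stably expressing TSHR and a modified CNG channel, with CNG-only parental cells as counterscreen, were preloaded 60 min at room temperature with membrane potential dye containing 100 uM RO 20-1724. Compound exposure was 30 min, and depolarization was read as fluorescence at 590 nm.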
Resorufin autofl: resorufin region autofluorescence. Compound fluorescence, resorufin region 547/598 nm, buffer; hits give high values. max dye-equivalent concentration, M. 59,000 compounds, 0.04% hits; active = above 10 nM dye equivalent; inconclusive = 1 to 10 nM; inactive = 1 nM or less; a few of its hits are not listed in these tables; also: highest value over a series up to 38 µM
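Dye-equivalent concentration values derive from comparing each well's 547/598 nm fluorescence against resorufin standards included on every plate. Incubation was 15 min at room temperature in 100 mM Tris, pH 8.0.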
Starred values were filed as active, the others as inactive; i = inactive; ? = inconclusive; · = not tested or not shown; & = joins results of further samples; [ ] = remark or other dose. These rows are one share of the data. The share of hits here may be higher or lower than overall.

Below each compound: AID923	A488 fluor	A647 fluor	TSHR agonist	Resorufin autofl
- CCCC(=O)Nc1ccc2c(c1)nc1n2CCSC1
    4.7%	i	1.42e-08	-12.6%	i
- CC1CCN(C(=O)C2CCCN(S(C)(=O)=O)C2)CC1 (stereo not drawn)
    2.4%	i	1e-09	-0.9%	i
- CCOC(=O)C(CCSC)NC(=O)CN (stereo not drawn)
    -0.8%	i	1e-09	-7.5%	i
- CCN1CCCCC(=N/O)/C(=N/O)CCCC1
    -5.5%[11.5 µM]	i	1e-09	3.4%[11.4 µM]	i
- Cc1cc(C(=O)Nc2sc3c(c2C#N)CCCCC3)cs1
    -1.1%	i	1.12e-08	24.9%	i
- COc1ccc(C2N(c3cccc(Cl)c3)C(=O)C3CCCN32)cc1 (stereo not drawn)
    2.3%	·	·	7.6%	·
- Clc1cccc(-c2nn3c(-c4cccc(Cl)c4)nnc3s2)c1
    ·	i	1e-09	·	i
- C=C(C)C1CC=C(C)C(OC(C)=O)C1 (stereo not drawn)
    0.6%	·	·	?	·
- O=C(COC(=O)c1ccccc1Oc1ccccc1)NCc1ccco1
    1.8%	i	3.33e-08	?	i
- COCc1nc2ccccc2n1Cc1ccccc1
    -0.8%	i	9.5e-09	18.6%	i
- O=C(NCc1ccccn1)c1ccc(/C=N/O)nc1
    1.7%	i	2.91e-08	10.8%	i
- CCOc1ccccc1Oc1c(C)oc2c(CN3CCN(CCO)CC3)c(O)ccc2c1=O
    5.4%	i	2.07e-08	1.7%	i
- CCCN(Cc1ccccc1)S(=O)(=O)c1ccc(N2C(=O)CCC2=O)cc1
    -0.7%	i	1.38e-08	8.5%	i
- CC(C)Cn1cc(C(=O)NCC2CCCO2)c2c3ccccc3n(C)c2c1=O (stereo not drawn)
    -0.8%	i	1e-09	4.1%	i
- CS(=O)(=O)N1CCC[C@@]2(CCN(C(c3ccccc3)c3ccccc3)C2)C1
    1.2%	i	2.8e-09	?	i
- Cn1c(N)c(C(=O)COC(=O)CCC(=O)c2cccs2)c(=O)n(C)c1=O
    3.9%	i	1e-09	·	i
- O=C(CN1CCC(c2nc3ccccc3[nH]2)CC1)NCc1ccc2c(c1)OCO2
    1.8%	i	2e-09	5.3%	i
- COc1ccc(CCN2C(=O)C(O)=C(C(=O)c3ccco3)C2c2cccs2)cc1OC (stereo not drawn)
    -0.3%	i	1e-09	20.3%	i
- CCOC(=O)C1CCN(C(=O)Nc2ccc(OC)c(OC)c2)CC1
    -1.1%	i	1e-09	-13.7%	i
- Cc1ccc(C(c2nnnn2C(C)(C)C)N2CCc3ccccc3C2)cc1 (stereo not drawn)
    1.3%	i	1.37e-08	-2.6%	i
- CCc1cc2c(SCC(=O)c3cccs3)ncnc2s1
    2.4%	i	3.94e-08	?	i
- COc1ccc(-c2cc(C(F)(F)F)nc(SCC(=O)N3CC(C)OC(C)C3)n2)cc1OC (stereo not drawn)
    -0.6%	i	4.7e-09	8.3%	i
- CCOc1ccc(-n2nc(C(=O)N3CCOCC3)c3ccccc3c2=O)cc1
    -0.1%	i	2.2e-09	3.1%[11.4 µM]	i
- CCOC(=O)C1=C(C)NC(=O)C1(NC(=O)c1cccnc1)C(F)(F)F (stereo not drawn)
    -1.1%	i	2.16e-08	-8.0%	i
- CCc1ccc(NC(=O)CN(c2ccc3c(c2)OCO3)S(=O)(=O)c2c(C)noc2C)cc1
    -2.6%	·	·	18.0%	·
- Cc1ccsc1C(=O)Nc1ccc(C(=O)O)cc1
    -0.4%	i	1e-09	-2.6%	i
- CCn1c(C(=O)OC)cc2c1ccn2-c1ccc(F)cc1
    1.9%	i	2.14e-08	?	i
- Cc1cc2c(=O)n(CC(=O)NCC(=O)N3CCN(Cc4ccccc4)CC3)cnc2s1
    0.4%	i	3.4e-08	-7.1%	i
- c1ccc(-c2cc(N3CCCCC3)ncn2)cc1
    -1.2%	i	1e-09	?	i
- Cc1ccc(NC(=O)CN(C)S(=O)(=O)c2cccc3nsnc23)cc1Cl
    0.3%	i	3.51e-08	-16.0%	i

Compound profiles (already shown). Order of values: AID923 | A488 fluor | A647 fluor | TSHR agonist | Resorufin autofl
Cc1ccc(NC(=O)CN(C)S(=O)(=O)c2cccc3nsnc23)cc1Cl in the list: 0.3% | i | 3.51e-08 | -16.0% | i
CCOC(=O)C1CCN(C(=O)Nc2ccc(OC)c(OC)c2)CC1 in the list: -1.1% | i | 1e-09 | -13.7% | i

(more compounds)
Below each compound: AID923	A488 fluor	A647 fluor	TSHR agonist	Resorufin autofl
- O=C(NCCN1CCOCC1)c1ccc(CS(=O)(=O)c2ccc(Cl)cc2)o1
    1.1%	i	2.3e-09	1.4%[11.4 µM]	i
- Nc1nc2ccc([N+](=O)[O-])cc2s1
    -2.1%	·	·	?	·
- COc1cc2c(cc1NC(=O)Cn1cnc3c1c(=O)n(C)c(=O)n3C)oc1ccccc12
    -0.8%	i	1.36e-08	-1.2%	i
- CC(=O)Cc1nsc(Nc2ccc3c(c2)OCCO3)n1
    -0.3%	i	2.23e-08	3.3%	i
- Fc1ccccc1-c1nc(-c2ccccc2)no1
    0.0%	i	1e-09	4.0%	i
- CC(C)(C)c1cc(C(=O)/C=C/c2ccc(C(=O)O)cc2)cc(C(C)(C)C)c1
    -0.6%	·	·	19.1%	·
- Nc1nc(-c2cccnc2)nn1C(=O)Cc1ccccc1
    -0.2%	i	2.6e-09	0.3%	i
- CCS(=O)(=O)N1CCC(C(=O)NCc2ccccc2OC)CC1
    -0.7%	i	3.5e-09	-1.6%	i
- COc1cc(NC(=O)c2cccs2)c(C(=O)OCC(=O)NCc2ccco2)cc1OC
    1.0%	i	4.97e-08	?	i
- CCC1c2ccc(C)n2CCN1C(=O)Nc1ccccc1OC (stereo not drawn)
    17.6%	i	3.83e-08	-3.0%[11.4 µM]	i
- CC1(C)NC(=O)N(CC(O)COc2ccc(N3C(=O)c4ccccc4C3=O)cc2)C1=O (stereo not drawn)
    1.7%	·	·	-4.3%	·
- O=C(COC(=O)c1ccco1)NCc1cccs1
    -1.8%	i	1.87e-08	-0.8%	i
- CC1CCCN(CCCNC(=O)CCn2nc(-c3ccccc3)ccc2=O)C1 (stereo not drawn)
    1.0%	i	2.4e-09	5.2%	i
- COc1ccccc1C(=O)Nc1ccc(N2CCN(S(C)(=O)=O)CC2)cc1
    0.6%	i	1e-09	-8.4%	i
- CCn1cc(C(=O)O)c(=O)c2cc(F)c(N3CCN(C(=O)Nc4ccccc4)CC3)cc21
    -0.7%	i	2.1e-09	?	i
- Cc1cccc(OCc2nnc(SCC(=O)N3CCN(C(=O)c4ccco4)CC3)n2C)c1C
    0.7%	i	2e-09	-1.1%	i
- CC(C)(C)NC(=O)C(c1ccco1)N(Cc1ccc2c(c1)OCO2)C(=O)Cn1nnc2ccccc21 (stereo not drawn)
    1.1%	i	2.2e-09	?	i
- O=C(O)CSc1nc2ccc(Cl)cc2[nH]1
    -0.3%	i	1e-09	1.2%	i
- Cc1nnc(SCCN2CCOCC2)n1-c1cccc(Cl)c1
    0.9%	i	2.63e-08	-2.4%	i
- COc1ccc(NC(=O)C2=C(C)Nc3ncnn3C2c2ccccc2C(F)(F)F)c(OC)c1 (stereo not drawn)
    -0.9%	i	4.05e-08	1.2%	i
- COC(=O)C1(C)NC(c2cccs2)C2C(=O)N(c3ccc(F)cc3)C(=O)C21 (stereo not drawn)
    -1.3%	i	2.11e-08	2.4%	i
- O=C(c1ccccc1)N1CC(COc2ccccc2)OC(c2ccco2)O1 (stereo not drawn)
    -0.1%	i	1e-09	?	i
- Cc1noc(C)c1COC(=O)c1ccc2c(c1)S(=O)(=O)c1ccccc1C2=O
    -0.9%	i	1e-09	?	i
- O=C(COC(=O)c1cccs1)NC1CCCCC1
    -2.5%	i	9.9e-09	-4.0%	i
- COc1ccc(CCN=CC2=C(O)CCCC2=O)cc1OC
    -1.0%	·	·	6.5%	·
- CN1CCc2ccccc2Cc2[nH]c3ccccc3c2CC1
    6.8%	i	4e-08	8.5%&14.8%	i
- Cc1noc(C)c1-c1ccc2ncnc(NCc3cccnc3)c2c1
    0.8%	i	9.3e-09	5.9%	i
- COc1cccc(N2CCN(C(=O)c3[nH]c(C)c(C(C)=O)c3C)CC2)c1
    2.3%	i	1e-09	-2.3%	i
- CCN(C(=O)CN1CCN(c2ccccc2OC)CC1)c1c(N)n(Cc2ccccc2)c(=O)[nH]c1=O
    1.3%	i	4.5e-09	-2.0%	i
- COc1cc(C2C(C(=O)c3ccc(C)o3)=C(O)C(=O)N2CCc2ccccc2)ccc1O (stereo not drawn)
    -0.9%	i	1e-09	2.7%	i
- O=C(c1ccccc1)C1C(=O)c2ccccc2C1=O
    -0.3%	i	6e-09	3.0%[11.4 µM]	i
- CCn1ncc(C2=NOC(C(=O)Nc3cccnc3)C2)c1C (stereo not drawn)
    -0.3%	·	·	-1.5%	·
- CC1CCN(C(=O)CSc2nnc(Cc3cccn3C)n2-c2ccc(F)cc2)CC1
    1.5%	·	·	3.3%	·
- COCCN1C(=O)c2oc3c(C)cc(C)cc3c(=O)c2C1c1cccc(O)c1 (stereo not drawn)
    1.1%	i	1e-09	16.1%	i
- COc1ccc(-c2noc(-c3ccccc3C(=O)NCc3ccco3)n2)cc1OC
    -1.3%	i	7.8e-09	42.8%	i
- Cn1c(=O)c2c(nc(N3CCN(Cc4ccccc4)CC3)n2CC(=O)c2ccccc2)n(C)c1=O
    ·	i	2.3e-09	·	i
- CCN(CCNC(=O)C1CCN(Cc2nc(-c3cccc(Cl)c3)oc2C)CC1)c1ccccc1
    -0.4%	i	3.44e-08	?	i
- O=C(c1ccc(N2CCOCC2)nc1)N1CCOCC1
    2.8%	i	3.26e-08	0.9%	i
- O=C(c1ccc(Cl)s1)N1CCc2ccccc21
    1.0%	i	1e-09	15.8µM*	i
- CCOc1ccccc1OC(=O)c1ccco1
    -0.7%	i	3.2e-08	2.6%	i
- COc1ccc2c(c1)C1(C)CC(C)(C)N2C(=O)N1c1ccccc1 (stereo not drawn)
    ·	i	7.23e-08	·	i
- CCOC(=O)Cn1c(=O)c2c(nc3n2CCN3Cc2ccccc2)n(C)c1=O
    -0.2%	i	2.1e-09	-10.3%	i
- O=C1CCCC2=C1C1(CCCC1)N=C(Nc1nc3ccccc3s1)N2
    0.0%	i	6.1e-09	-28.5%	i
- O=C(CCN1C(=O)C2C3C=CC(C3)C2C1=O)N1CCN(c2cccc(Cl)c2)CC1 (stereo not drawn)
    0.3%	i	1e-09	8.2%	i
- COC(=O)CSc1nnc(Cc2cc(=O)[nH]c(=O)[nH]2)n1-c1cccc(OC)c1
    -0.2%	i	4.3e-08	7.6%	i
- O=C(Nc1ccc2c(c1)OCCO2)c1cccc(S(=O)(=O)N2CCOCC2)c1
    0.0%	·	·	-4.8%	·
- Cc1cc(C)c(S(=O)(=O)N(CC(=O)N2CCOCC2)C2CCCCC2)c(C)c1
    19.5%	i	1e-09	3.4%	i
- CCOC(=O)N1CCN(C(=O)C2CCC(CNS(=O)(=O)c3ccccc3)CC2)CC1 (stereo not drawn)
    0.3%	i	3.8e-09	-6.2%[11.4 µM]	i
- O=C(Nc1nncs1)c1cccc(S(=O)(=O)N2CCCC2)c1
    -1.2%	i	3.57e-08	0.7%	i
- N[C@@H](Cn1cc(F)c(=O)[nH]c1=O)C(=O)O
    -0.8%	·	·	9.2%	·
- CC(=O)C1=C(c2ccccc2)NC(=O)NC1c1ccccc1OCC#N (stereo not drawn)
    -0.9%	i	3.62e-08	2.1%	i
